# Source: PubChem (Broad Institute)
# rRNA inh HTS: selective bacterial rRNA inhibition in E. coli; GFP signal change (wild-type ribosome), % (test concentration not listed); E. coli WT GFP vs humanized-ribosome RFP mutants, fluorescence, 24 h; active compounds read low; DMSO median 0, no signal -100; 350,000 compounds, 1.6% hits;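 active means significant combined selectivity score with lowered wild-type GFP, culture density cut under 30%, mutant RFP and density less affected; inactive means any of these conditions unmet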; further: one replicate is shown; some compounds called inactive have numbers as strong as hits
# FGF22 binding: FGF22 (human) thermal shift binding; AID 651658; 340,000 compounds, 1.5% hits; recombinant FGF22 thermal shift, SYPRO orange fluorescence; percent of sucrose octasulfate shift, DMSO zero; calls only at 9.99 µM;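 active means melting point raised past a set limit in the mean and every replicate; three in four hits are not shown here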
# Target sequence (Q9HCT0 whole entry, looked up): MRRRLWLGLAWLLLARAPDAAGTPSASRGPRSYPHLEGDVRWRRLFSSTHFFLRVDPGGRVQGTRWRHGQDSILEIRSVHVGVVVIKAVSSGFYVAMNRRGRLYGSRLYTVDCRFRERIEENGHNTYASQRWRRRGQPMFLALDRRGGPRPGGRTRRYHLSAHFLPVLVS
# rRNA inh HTS OD600: recorded beside rRNA inh HTS, whose call it bears; OD600 change, %; measured here: OD600 growth;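 optical density of the mix in the first replicate; 0 = DMSO median and -100 = no signal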
# rRNA inh HTS RFP: further read-out of rRNA inh HTS, marked with its call; RFP signal change, %; measured here: RFP humanized mutant strains;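 first replicate; 0 = DMSO median and -100 = no signal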
# Numbers without * were called inactive; i = inactive; + = active, no number.
molecule | rRNA inh HTS | FGF22 binding | rRNA inh HTS RFP | rRNA inh HTS OD600
CCC(=O)N(C)C[C@@H]1Oc2ncc(-c3ccc(C#N)cc3)cc2C(=O)N([C@@H](C)CO)C[C@@H]1C | 0 | i | -0.3 | 0
C[C@@H]1CN([C@H](C)CO)C(=O)c2cc(C#CCN(C)C)cnc2O[C@@H]1CN(C)C(=O)Cc1ccncc1 | 2 | i | 4.4 | -6
COc1ccc(NC(=O)N(C)C[C@@H]2OCc3ccccc3-c3c(n(C)c4ccccc34)C(=O)N([C@@H](C)CO)C[C@H]2C)c(OC)c1 | 0 | i | 2.5 | 2
O=S(=O)(c1ccccc1)N1CCCCN2[C@H](CO)[C@@H](c3ccc(C#CC4CCCC4)cc3)[C@H]2C1 | -8 | i | 2.0 | -20
C[C@@H]1CN([C@@H](C)CO)C(=O)c2cc(NC(=O)C3CC3)ccc2O[C@@H]1CN(C)C(=O)Nc1ccc2c(c1)OCO2 | 2 | + | -1.7 | 5
CC(=O)N1CC[C@@H]2[C@@H](CO)Nc3ccc(C#Cc4cccnc4)cc3[C@@H]21 | 3 | i | -4.9 | 14
Cc1noc(C)c1S(=O)(=O)N(C)C[C@@H]1OCCCC[C@H](C)Oc2ccc(NC(=O)Cc3ccccc3)cc2C(=O)N([C@@H](C)CO)C[C@H]1C | -1 | i | 0.3 | 4
Cc1ccccc1-c1ccc2c(c1)O[C@@H](CN(C)C(=O)Nc1ccc(F)cc1)[C@@H](C)CN([C@H](C)CO)S2(=O)=O | 1 | i | -0.8 | -4
C[C@@H]1CN([C@H](C)CO)C(=O)c2cc(NC(=O)NC3CCCCC3)ccc2O[C@@H](C)CCCCO[C@@H]1CN(C)S(=O)(=O)c1ccc(Cl)cc1 | 0 | i | 1.9 | 0
CCCC(O)C#Cc1cnc2c(c1)C(=O)N([C@H](C)CO)C[C@H](C)[C@H](CN(C)S(=O)(=O)c1cccc(F)c1)O2 (stereo partly drawn) | -2 | i | 1.1 | 10

# Of the compounds above, these have a halogen.
molecule | rRNA inh HTS | FGF22 binding | rRNA inh HTS RFP | rRNA inh HTS OD600
Cc1ccccc1-c1ccc2c(c1)O[C@@H](CN(C)C(=O)Nc1ccc(F)cc1)[C@@H](C)CN([C@H](C)CO)S2(=O)=O | 1 | i | -0.8 | -4
C[C@@H]1CN([C@H](C)CO)C(=O)c2cc(NC(=O)NC3CCCCC3)ccc2O[C@@H](C)CCCCO[C@@H]1CN(C)S(=O)(=O)c1ccc(Cl)cc1 | 0 | i | 1.9 | 0
CCCC(O)C#Cc1cnc2c(c1)C(=O)N([C@H](C)CO)C[C@H](C)[C@H](CN(C)S(=O)(=O)c1cccc(F)c1)O2 (stereo partly drawn) | -2 | i | 1.1 | 10

# Later entries.
molecule | rRNA inh HTS | FGF22 binding | rRNA inh HTS RFP | rRNA inh HTS OD600
O=C(C[C@H]1C=C[C@H](NC(=O)Nc2cc(F)ccc2F)[C@H](CO)O1)NCc1ccncn1 | 3 | i | -2.6 | 4
C[C@H](CO)N1C[C@H](C)[C@H](CN(C)C(=O)NC2CCCCC2)Oc2c(NC(=O)C3CCCCC3)cccc2C1=O | -5 | i | -0.5 | -1
CO[C@H]1CN(C)C(=O)c2cc(NC(C)=O)ccc2OC[C@@H](C)N(C(=O)C2CCCCC2)C[C@@H]1C | -1 | i | -1.1 | -3
CCCC(=O)Nc1ccc2c(c1)C(=O)N(C)C[C@@H](OC)[C@@H](C)CN(Cc1cccc(F)c1)[C@H](C)CO2 | -4 | i | 2.9 | -17
C[C@@H]1CN([C@H](C)CO)C(=O)c2cccc(NC(=O)Nc3ccc4c(c3)OCO4)c2O[C@H]1CN(C)S(=O)(=O)c1ccc(Cl)cc1 | -2 | i | -0.8 | -10
O=C(CC1CC1)N1CC2(C1)[C@H](c1ccccc1)[C@H](CO)N2S(=O)(=O)Cc1ccccc1 | 2 | i | 0.7 | 6
C[C@@H]1CN([C@H](C)CO)C(=O)Cc2cc(NC(=O)Cn3cnnn3)ccc2O[C@H]1CN(C)CC1CCCCC1 | 1 | i | 1.9 | -1
COCC(=O)N1[C@@H](C#N)[C@H](c2ccc(C#CCC3CCCC3)cc2)[C@@H]1CO | -1 | i | -3.6 | -13
C[C@H](CO)N1C[C@H](C)[C@H](CN(C)S(=O)(=O)c2cn(C)cn2)Oc2c(NS(=O)(=O)c3ccc(F)cc3)cccc2C1=O | 0 | i | -1.7 | -5
Cc1noc(C)c1NC(=O)Nc1ccc2c(c1)C(=O)N([C@@H](C)CO)C[C@@H](C)[C@@H](CN(C)Cc1ccncc1)O2 | 2 | i | -1.9 | 1

# Just FGF22 binding (two entries from above):
compound | FGF22 binding
C[C@H](CO)N1C[C@H](C)[C@H](CN(C)S(=O)(=O)c2cn(C)cn2)Oc2c(NS(=O)(=O)c3ccc(F)cc3)cccc2C1=O | i
CCCC(=O)Nc1ccc2c(c1)C(=O)N(C)C[C@@H](OC)[C@@H](C)CN(Cc1cccc(F)c1)[C@H](C)CO2 | i

# Next section
molecule | rRNA inh HTS | FGF22 binding | rRNA inh HTS RFP | rRNA inh HTS OD600
CCCNC(=O)Nc1ccc2c(c1)C(=O)N(C)C[C@H](OC)[C@H](C)CN(C(=O)C1CC1)[C@@H](C)CO2 | 4 | i | 1.0 | 1
CO[C@H]1CN(C)C(=O)c2ccc(NC(=O)C3CCCC3)cc2OC[C@H](C)N(CCC(F)(F)F)C[C@@H]1C | -3 | i | 1.5 | 0
CCCNC(=O)N1[C@@H](CO)[C@@H](c2ccccc2)C12CN(CCC(F)(F)F)C2 | 1 | i | -0.7 | 12
Cc1cccc(-c2ccc([C@@H]3[C@H]4CN(S(=O)(=O)c5cccc(F)c5)CC(=O)N4[C@H]3CO)cc2)c1 | 2 | i | 3.6 | -3
CCC(=O)N[C@@H]1C=C[C@H](CC(=O)NCc2ccc(OC)cc2)O[C@@H]1CO | 8 | i | 1.5 | 6
O=C(/C=C(\Nc1cccc(Cl)c1F)c1ccccc1)c1ccccc1 | 6 | i | 2.4 | 6
CO[C@H]1CN(C)C(=O)c2ccc(NC(=O)C3CC3)cc2OC[C@H](C)N(CC2CCCC2)C[C@H]1C | 3 | i | -0.6 | -2
COc1ccc(NC(=O)N(C)C[C@@H]2Oc3c(NS(=O)(=O)c4c(C)noc4C)cccc3C(=O)N([C@@H](C)CO)C[C@@H]2C)cc1 | 4 | i | 1.6 | -1
CO[C@@H]1CN(C)C(=O)c2ccc(NC(=O)C3CCC3)cc2OC[C@@H](C)N(Cc2cccnc2)C[C@H]1C | -1 | i | -5.0 | -2
Cc1ccc(S(=O)(=O)N2[C@@H]3CNC[C@H]2C3c2ccc(-c3ccc(C(=O)N(C)C)cc3)cc2)cc1 (stereo partly drawn) | 2 | i | 0.1 | 10
C[C@H]1CN([C@@H](C)CO)S(=O)(=O)c2ccc(C#Cc3ccc(F)cc3)cc2O[C@@H]1CN(C)C | -1 | i | 6.0 | -7
CN1C(=O)c2cc(NC(=O)c3cnccn3)ccc2OC[C@H]2O[C@@H](CC(=O)O)CC[C@H]21 | 1 | i | 1.4 | 4
CCCN1[C@@H]2c3ccc(C4=CCCCC4)c(=O)n3C[C@@H]2[C@@H](CO)[C@@H]1C(=O)NCCCN(C)C | 0 | i | -2.4 | 2
COc1ccc(S(=O)(=O)Nc2ccc3c(c2)C(=O)N([C@H](C)CO)C[C@H](C)[C@H](CN(C)Cc2ccc(C(F)(F)F)cc2)O3)cc1 | -7 | i | -3.9 | 2
C/C=C/c1ccc2c(c1)O[C@@H](CN(C)Cc1ccccc1F)[C@@H](C)CN([C@@H](C)CO)S2(=O)=O | 1 | i | 1.2 | -2
COc1ccc(S(=O)(=O)Nc2ccc3c(c2)C(=O)N([C@@H](C)CO)C[C@@H](C)[C@H](CN(C)C(=O)Nc2cccc4ccccc24)OCCCC[C@H](C)O3)cc1 | 1 | i | 0.7 | -2
C[C@@H]1CN([C@H](C)CO)C(=O)c2cc(NS(=O)(=O)c3ccccc3)ccc2O[C@@H](C)CCCCO[C@@H]1CN(C)C(=O)CCC(F)(F)F | 3 | i | 1.6 | 0
C[C@@H]1CN([C@@H](C)CO)C(=O)c2cc(NC(=O)c3ccccc3)ccc2O[C@@H](C)CCCCO[C@H]1CN(C)CC1CCCCC1 | 0 | i | 5.7 | -2
C[C@H]1CN([C@@H](C)CO)C(=O)c2cccc(NS(=O)(=O)c3cccs3)c2O[C@@H]1CN(C)C(=O)NC1CCCCC1 | 1 | i | -0.6 | 2
C[C@@H]1CN([C@H](C)CO)C(=O)c2cccc(NC(=O)C3CCOCC3)c2O[C@@H]1CN(C)C(=O)Nc1cccc2ccccc12 | -2 | i | 3.8 | 0
O=C(C[C@@H]1CC[C@@H](NC(=O)Nc2ccc(F)cc2)[C@@H](CO)O1)NCCN1CCCC1 | 3 | i | -1.8 | 6
C/C=C/c1ccc([C@H]2[C@@H](C#N)N(c3ncc(CC)s3)[C@H]2CO)cc1 | -4 | i | 2.3 | -42
C[C@@H]1CCCCO[C@@H](CN(C)C(=O)Nc2ccccc2)[C@H](C)CN([C@@H](C)CO)C(=O)c2cc(NC(=O)CCC(F)(F)F)ccc2O1 | 2 | i | -0.2 | -1
O=C(C[C@@H]1CC[C@@H]2[C@H](COC[C@@H](O)CN2C(=O)Nc2cccc(F)c2)O1)NCc1ccccc1F | -23 | i | 14 | -47
C[C@H](CO)N1C[C@H](C)[C@H](CN(C)C(=O)c2ccccc2)Oc2ncc(C3=CCCCC3)cc2C1=O | 2 | i | -0.1 | 3
Cc1ccc(-c2cnc3c(c2)C(=O)N([C@@H](C)CO)C[C@@H](C)[C@@H](CN(C)Cc2ccccc2F)O3)cc1 | -4 | i | 2.0 | -2
CCCNC(=O)Nc1ccc2c(c1)OC[C@@H](C)N(S(C)(=O)=O)C[C@@H](C)[C@H](OC)CN(C)C2=O | 1 | i | -2.4 | -7
Cc1ccc(S(=O)(=O)N[C@H]2CC[C@H](CC(=O)N3CCC(Cc4ccccc4)CC3)O[C@@H]2CO)cc1 | -3 | i | 42 | -37
O=C(c1ccncc1)N1C[C@@H]2[C@H](c3ccccc31)[C@H](CO)N2C(=O)c1ccncc1 | 6 | i | 0.1 | 8
COc1ccc(CN(C)C[C@H]2Oc3c(NC(=O)C4CCOCC4)cccc3C(=O)N([C@H](C)CO)C[C@@H]2C)cc1 | 0 | i | 3.3 | 12
Cc1ccc(S(=O)(=O)N[C@H]2CC[C@@H](CC(=O)NCc3ccccc3F)O[C@@H]2CO)cc1 | -1 | i | 0.6 | -10
C[C@@H]1CN([C@H](C)CO)S(=O)(=O)c2ccc(-c3cccnc3)cc2O[C@H]1CN(C)C(=O)CC1CC1 | 2 | i | -8.1 | 4
C[C@@H]1CCCCO[C@H](CN(C)S(C)(=O)=O)[C@@H](C)CN([C@H](C)CO)C(=O)c2cc(NC(=O)c3ccccc3)ccc2O1 | 0 | i | 0.1 | 3
CNC[C@H]1Oc2ccc(NC(=O)Nc3ccc(F)cc3)cc2CC(=O)N([C@H](C)CO)C[C@@H]1C | 3 | i | 0.2 | 9
COc1ccc(NC(=O)Nc2ccc3c(c2)CC(=O)N([C@@H](C)CO)C[C@@H](C)[C@@H](CN(C)Cc2ccc(Cl)c(Cl)c2)O3)cc1 | 6 | i | 1.6 | 5
COCC(=O)N1[C@@H](CO)[C@@H]2c3ccccc3N(C)C[C@@H]21 | -2 | i | 0.7 | -1
C[C@H](CO)N1C[C@H](C)[C@@H](CN(C)C(=O)Nc2ccc3c(c2)OCO3)Oc2ccc(NS(=O)(=O)c3cn(C)cn3)cc2CC1=O | 1 | i | -1.8 | -6
N#C[C@H]1[C@H](c2ccc(-c3cncnc3)cc2)[C@@H](CO)N1C(=O)C1CCC1 | 1 | i | -3.3 | 6
C[C@@H]1CN([C@@H](C)CO)C(=O)Cc2cc(NS(=O)(=O)c3ccccc3)ccc2O[C@@H]1CN(C)Cc1ccc(C(=O)Nc2ccccc2N)cc1 | -1 | i | -0.2 | -4
CCS(=O)(=O)N1CC2(C1)[C@@H](c1ccccc1)[C@@H](CO)N2C(=O)c1ccccc1 | 2 | i | -0.3 | 1
C[C@@H]1CN([C@H](C)CO)C(=O)c2cc(NS(=O)(=O)c3ccc(F)cc3)ccc2O[C@H]1CN(C)Cc1ccc(-c2ccccc2)cc1 | -4 | i | 9.3 | -7
C[C@@H]1CN([C@@H](C)CO)S(=O)(=O)c2ccc(C#Cc3ccc(F)cc3)cc2O[C@@H]1CN(C)S(=O)(=O)c1cn(C)cn1 | 0 | i | 2.3 | 1
C[C@@H]1CN([C@H](C)CO)C(=O)c2cc(NC(=O)CCCN(C)C)ccc2O[C@H]1CN(C)Cc1ccncc1 | 5 | i | -1.2 | 2
CCCC#Cc1cnc2c(c1)C(=O)N([C@@H](C)CO)C[C@@H](C)[C@@H](CN(C)C(=O)NC1CCCC1)O2 | 4 | i | 1.7 | 2
Cc1noc(C)c1NC(=O)N(C)C[C@H]1OCCCC[C@H](C)Oc2ccc(N(C)C)cc2C(=O)N([C@@H](C)CO)C[C@@H]1C | 0 | i | 3.8 | 2
Cc1ccc(S(=O)(=O)N(C)C[C@@H]2Oc3c(NS(=O)(=O)c4cccs4)cccc3C(=O)N([C@@H](C)CO)C[C@@H]2C)cc1 | -1 | i | -1.0 | 2
O=C(c1cccc(F)c1)N1CCCCN2[C@H](CO)[C@@H](c3ccc(-c4cccnc4)cc3)[C@@H]2C1 | -5 | i | 0.9 | -2
C[C@@H]1CN([C@@H](C)CO)C(=O)c2cc(NC(=O)Nc3ccc(C(F)(F)F)cc3)ccc2O[C@H]1CN(C)C(=O)Nc1ccc(F)cc1 | -1 | i | 2.2 | 0
CCCC(=O)Nc1ccc2c(c1)C(=O)N(C)[C@H]1CC[C@@H](CC(=O)NCCN3CCCCC3)O[C@@H]1CO2 | 4 | i | 1.3 | -2

# The list is partial, so the mix of outcomes need not match the whole.
